UCH37 DUB inh – blocks the human deubiquitinase UCH37; actives 0.33% (n = 330,000); purified proteasome/UCH37, Ub-AMC cleavage fluorescence; inhibition, % (concentration not given with the values); Q9Y5K5;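 active means mean of two replicates above 20%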;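 further: 0% = compound-free wells with enzyme and 100% = wells lacking proteasome; stock transfer was 100 nL into about 20 µL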
Target sequence (Q9Y5K5 whole entry, looked up): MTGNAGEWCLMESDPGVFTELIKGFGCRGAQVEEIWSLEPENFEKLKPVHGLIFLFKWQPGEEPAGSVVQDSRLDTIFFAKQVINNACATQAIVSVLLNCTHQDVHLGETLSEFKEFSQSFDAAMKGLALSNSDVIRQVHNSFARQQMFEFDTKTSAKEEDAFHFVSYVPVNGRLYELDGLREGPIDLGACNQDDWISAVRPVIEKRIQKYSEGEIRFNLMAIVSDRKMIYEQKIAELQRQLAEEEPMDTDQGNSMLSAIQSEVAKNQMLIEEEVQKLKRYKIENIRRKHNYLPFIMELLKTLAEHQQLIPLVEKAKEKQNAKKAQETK
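Material: human UCH37 enzyme supplied as purified proteasome complex / Amount: 0.15 nM proteasome as dispensed / Buffer or medium: pH 7.4 Tris-HCl (50 mM) with ovalbumin, ATP-MgCl2, DTT / Times: preincubation 30 min, reaction 25 min, room temperature / Technique: AMC fluorescence from Ub-AMC cleavage, excitation 355 nm, emission 460 nm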
HNF4A DNA FP – change in binding of human HNF4 alpha to DNA; P41235; HNF4a-FITC DNA binding, fluorescence polarization, 1 h; activity change, % at 10 µM; actives 0.3% (n = 360,000); AID 1224865; in the data active means activity change above about 30%, passing the limit was not always enough;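 further: controls were the assay level and a saturating level of protein; the project sought stronger binding though the title names inhibitors; some compounds called inactive have numbers as strong as hits; positive values seem to mean higher polarization but the record does not say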
Target sequence (P41235 whole entry, looked up): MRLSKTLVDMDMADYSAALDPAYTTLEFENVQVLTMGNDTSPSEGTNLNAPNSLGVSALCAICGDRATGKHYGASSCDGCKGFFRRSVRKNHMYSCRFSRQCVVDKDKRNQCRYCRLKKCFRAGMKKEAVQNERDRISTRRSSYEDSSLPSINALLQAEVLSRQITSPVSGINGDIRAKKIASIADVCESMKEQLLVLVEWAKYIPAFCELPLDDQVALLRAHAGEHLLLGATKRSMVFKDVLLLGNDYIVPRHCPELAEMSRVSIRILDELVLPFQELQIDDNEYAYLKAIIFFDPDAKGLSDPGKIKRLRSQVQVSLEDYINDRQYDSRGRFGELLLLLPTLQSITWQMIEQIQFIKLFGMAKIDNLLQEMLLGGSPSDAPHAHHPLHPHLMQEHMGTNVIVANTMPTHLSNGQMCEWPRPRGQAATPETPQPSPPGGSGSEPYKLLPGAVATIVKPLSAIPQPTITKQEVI
FGF22 binding – FGF22 (human) thermal shift binding; Q9HCT0; recombinant FGF22 thermal shift, SYPRO orange fluorescence; percent of sucrose octasulfate shift, DMSO zero; calls only at 9.99 µM; actives 1.5% (n = 340,000);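 active means melting point raised past a set limit in the mean and every replicate; inconclusive means no clear call; three in four hits are not shown here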
Target sequence (Q9HCT0 whole entry, looked up): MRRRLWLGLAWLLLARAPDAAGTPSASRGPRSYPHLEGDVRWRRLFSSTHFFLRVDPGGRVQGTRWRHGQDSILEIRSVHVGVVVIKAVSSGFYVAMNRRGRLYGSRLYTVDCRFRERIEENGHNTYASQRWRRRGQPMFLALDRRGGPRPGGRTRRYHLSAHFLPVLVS
Ecoli growth – inhibitors of Escherichia coli growth. actives 0.21% (n = 330,000). OD600 absorbance (concentration not given with the values). OD600, 23 h; hits give low values. AID 1053175;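 active means OD600 absorbance below the run mean of sample wells minus 3.6 SD, in any replicate, cut at about 0.56 in these data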;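 further: stock transfer was 300 nL into about 60 µL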
MLL AF4-AF9 inh – inhibitors of human MLL-AF4/AF9 interaction; P42568; inhibition, % at 10 µM; actives 0.47% (n = 350,000); AlphaScreen, biotin-AF4 peptide binding to FLAG-AF9;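 active means every replicate reaching a set inhibition limit, whatever the replicate mean, cut at about 25% in these data; inconclusive means mean inhibition reaches that limit but some replicates miss it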;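 further: 0% = plate neutral control median and 100% = total signal loss; the record names both 10 and 1 µM as test concentration; the first replicate is given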
RanGTP-Imp inh – inhibitors of RanGTP-importin-beta interaction, primary screen, biochemical, FRET, CFP-Ran, YFP-importin-beta, homogeneous | actives 1.1% (n = 300,000) | cell-free CFP-Ran/YFP-importin-beta FRET ratio | inhibition, % (no concentration beside the values);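 active means most replicates above 15%; inconclusive means exactly half above 15%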;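 further: 0% = DMSO wells and 100% = Ran loaded with GDP instead of GTP; wells of about 40 µL received 100 nL stock; the first replicate is given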
Vif A3G – inhibitors of Vif binding to APOBEC3G peptide, primary screen, biochemical, TR-FRET, GST-Vif 1-94, biotin-A3G peptide, dose response retest (AID 1117319) | TR-FRET GST-Vif / biotin-A3G peptide binding; higher % means a stronger effect; test concentration not given here; strong numbers were not always called active | inhibition, %, or IC50 in µM where a hit was titrated | actives 0.57% (n = 260,000);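 active means above the screen mean plus three standard deviations and confirmed in dose response; inconclusive means results disagree or hit not tested in dose response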;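 further: Vif residues 1-94 fused to GST binding biotinylated APOBEC3G peptide 110-148; 0% = full assay without inhibitor and 100% = GST in place of GST-Vif; retest series ran down from 100 µM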
Numbers without * were called inactive; i = inactive; u = inconclusive; x = not tested or not shown; & = joins results of further samples.

SMILES,UCH37 DUB inh,HNF4A DNA FP,FGF22 binding,Ecoli growth,MLL AF4-AF9 inh,RanGTP-Imp inh,Vif A3G
CCCCCCN(C(=O)CCCCCN1C(=O)NC(c2ccc(-c3ccccc3)cc2)C(C(=O)OCc2ccccc2)=C1C)C(C(=O)NCCCC)c1ccc(OCC(=O)OC)c(C(=O)OC)c1 (stereo unspecified),1.8,x,x,0.692,-33.4,4.9,x
CCc1c(C(=O)Nc2cc(C)cc(C)c2)[nH]c(C)c1C(C)=O,4.9,1.7,x,0.675,x,-1.5,-6.3%
CCn1nnnc1NCc1ccc(Cl)cc1,2.1,2.1,i,0.631,1.1,-1.0,-0.7%
O=C(NCCSCc1ccccc1)c1cc(S(=O)(=O)N2CCOCC2)ccc1F,-0.4,0.1,x,0.65,x,x,2.0%
CC(C)(C)c1ccc(C(=O)NNC(=S)NCc2ccco2)cc1,3.8,3.8,i,0.661,1.9,-1.5,1.2%
CCOC(=O)C1CCCN(C(=O)CN2C(=O)c3ccccc3S2(=O)=O)C1 (stereo unspecified),0.0,-4.9,i,0.675,-0.3,x,x
COc1ccc(NC(=O)c2cc([N+](=O)[O-])nn2Cc2ccccc2)c(C)c1,4.6,3.8,x,0.767,x,-1.4,14.8%
COc1cccc(N2C(=O)Nc3ccccc3C2(O)C(=O)NCc2ccc3c(c2)OCO3)c1 (stereo unspecified),3.8,1.7,x,0.703,x,-1.6,-0.3%
COC(=O)c1ccccc1NC(=S)NC(=O)c1cccc2ccccc12,4.1,-3.3,x,0.746,x,8.0,2.8%
N#Cc1nc(Cc2ccccc2)oc1NCc1ccccc1,-0.2,-1.4,x,0.661,x,6.0,22.1%
CCC(C(=O)NC1CCCC1)N(C(=O)Cn1nnc(-c2ccc(C)o2)n1)c1cnc2ccccc2c1 (stereo unspecified),3.6,3.3,x,0.709,x,u,4.4%&-9.6%
C=CCn1c(SCc2c(C(=O)OC)sc(N)c2C(=O)OC)nnc1-c1ccc(Br)cc1,3.1,1.5,x,0.737,x,6.6,u
O=C(Cc1cn(Cc2cccc(Cl)c2)c2ccccc12)N1CCCCCC1,5.7,1.3,i,0.694,-24.6,-2.0,-0.8%
Cc1cccc(/C(N)=N/OC(=O)CCc2ccccc2)c1,4.0,1.2,i,0.704,0.5,1.1,-2.0%
CC1CCCCC12NC(=O)N(CC(=O)N1CCN(S(=O)(=O)c3ccc(Cl)s3)CC1)C2=O (stereo unspecified),x,4.9,i,x,-4.0,x,7.6%
CCOC(=O)C1=NN(C(=O)COc2ccccc2)C(O)(c2ccc(Cl)cc2)C1 (stereo unspecified),x,-1.6,i,x,-1.4,3.3,x
O=C1CN(C(=O)/C=C/c2ccc(Cl)cc2)c2ccccc2N1,3.6,-0.6,i,0.68,2.9,-2.0,13.5%
Cc1cccc(-c2nnc(SC(C)C(=O)N3CCOCC3)o2)c1 (stereo unspecified),4.1,-1.8,i,0.685,1.4,u,x
O=C(CCCn1c(SCc2cc(=O)n3cc(Cl)ccc3n2)nc2ccccc2c1=O)NCC1CCCO1 (stereo unspecified),-15.0,1.0,i,0.67,-1.1,1.5,3.6%
Cc1nc2ncnn2c(C)c1Cc1ccc(Cl)cc1F,4.0,2.5,i,0.71,4.4,u,16.5%
O=C(CSCc1nc2ccccc2[nH]1)Nc1ccccc1,0.5,6.9,x,0.624,x,1.3,4.6%
O=C(COC(=O)c1ccc(F)cc1)Nc1ccc(Cl)cn1,3.7,-1.1,i,0.699,-32.1,-1.4,-2.3%
Cc1cc(-c2nnc(CCC(=O)NCCc3ccccc3F)o2)no1,3.0,-0.7,i,0.673,-0.5,3.6,-11.8%
S=C(Nc1ccccc1)c1ccccn1,0.8,1.1,x,0.675,x,-0.5,0.5%&2.5%
COc1ccc(-c2csc(NC(=O)c3ccccc3C(=O)O)n2)cc1,2.1,1.6,i,0.727,-1.4,4.7,4.7%
O=C(Nc1ccc2c(c1)OCCO2)C(=O)c1c[nH]c2ccccc12,2.9,0.8,i,0.722,-3.2,-2.6,x
COC(=O)c1ccc(CSc2nnc3n(Cc4ccccc4OC)c(=O)c4ccccc4n23)o1,2.8,-1.0,x,0.704,x,-1.2,-4.3%&21.4%
COC(=O)c1ccccc1S(=O)(=O)Nc1ccc(OC)nc1,5.4,-0.8,x,0.713,x,-1.4,u
CC(C)C(=O)Nc1ccc(NC(=O)c2cccs2)cn1,1.0,2.3,x,0.707,x,6.7,26.5%
CCOC(=O)/C(C#N)=N\Nc1cc(Cl)ccc1OC,x,74.9*,x,x,-0.7,-2.5,0.7%
O=C(CN1C(=O)C2CC=CCC2C1=O)OCc1cc(=O)n2cc(Br)ccc2n1 (stereo unspecified),-11.8,-1.8,i,0.688,-8.6,-2.9,-5.6%
Cc1ccc(CN2CCN(Cc3nc4c(s3)CCCC4)CC2CCO)cc1 (stereo unspecified),x,4.6,i,x,1.0,-0.8,-2.3%
Cc1onc(-c2ccccc2)c1C(=O)N(C)CCc1ccccn1,1.8,-2.2,i,0.701,-20.5,-0.1,0.1%
O=C1/C(=C/c2cccnc2)Oc2cc(OS(=O)(=O)c3ccc(F)cc3)ccc21,1.0,-1.6,i,0.725,1.8,-0.3,0.7%
CCOC(=O)CC(=O)CSc1ccc2nnc(-c3cccc(F)c3)n2n1,-14.9,-0.6,x,0.73,x,4.7,3.6%
c1ccc(COc2ncnc3c2ncn3CCCNCCN2CCOCC2)cc1,x,5.0,i,x,-1.1,x,-1.0%
COc1cc(NC(=O)Cn2c(C)cc3ccccc3c2=O)cc(OC)c1OC,-0.3,-2.3,x,0.727,x,2.5,-7.8%
CCNC(=O)C1(C)CCCN(C(=O)Cc2ccc(OC)c(OC)c2)C1 (stereo unspecified),x,2.5,i,x,-0.1,x,x
O=C1c2ccccc2C(=O)N1CCCCN(C(=O)c1cc2ccccc2oc1=O)c1ccc(F)cc1F,0.5,1.8,x,0.714,x,4.1,21.7%
COc1cc(CNCCc2ccccc2)ccc1OCc1ccc(Cl)nc1,3.8,10.6,i,0.653,-27.7,-1.8,3.0%
O=S(=O)(NCC1CCCO1)c1ccc(NS(=O)(=O)c2ccc(F)cc2)cc1 (stereo unspecified),1.7,4.0,i,0.683,-2.5,1.8,x
O=C1C2C3CC4C5C3C1C5C1(SCCS1)C42 (stereo unspecified),x,1.4,i,x,-3.3,x,x
COc1ccc(/C=C/C(=O)NC(=S)NN2CCCCC2c2cccnc2)cc1 (stereo unspecified),4.6,3.1,x,0.71,x,0.0,x
O=C(Nc1cccc([N+](=O)[O-])c1)c1ccn[nH]1,3.4,-0.6,x,0.712,-0.7,-3.9,29.8%
CC1NC(=O)NC1CCCCCC(=O)NCCc1ccccc1 (stereo unspecified),3.4,-3.1,i,0.664,76.7*,5.7,31.4%
O=c1c2ccccc2nc(-c2ccoc2)n1CCc1ccccc1,2.3,3.3,x,0.738,x,-0.6,-1.1%
Cc1ccc(-n2cc(CNCCN3CCOC3=O)c(-c3ccc(F)cc3)n2)cc1,3.2,1.4,i,0.682,1.4,-0.5,8.6%
O=C(Nc1cccc(F)c1)N1CC=C(c2ccc(Cl)cc2)CC1,0.5,-7.0,x,0.659,x,1.8,2.3%
COCCn1c(SCC(=O)NC2(C#N)CCCCC2)nc2ccccc2c1=O,3.1,4.0,i,0.669,-10.7,x,-5.7%
Cc1cc(C(=O)Nc2ccc(S(=O)(=O)N3CCOCC3)cc2)ccc1[N+](=O)[O-],3.6,1.3,i,0.677,4.7,-2.9,x

(cont.)
SMILES,UCH37 DUB inh,HNF4A DNA FP,FGF22 binding,Ecoli growth,MLL AF4-AF9 inh,RanGTP-Imp inh,Vif A3G
CC1(C)SC(=S)N(/N=C/c2ccccc2)C1N(O)C(=O)Nc1ccc([N+](=O)[O-])cc1 (stereo unspecified),x,1.5,x,x,x,-1.8,-4.7%
Clc1cccc(Nc2ncnc3ccc(Br)cc23)c1,-34.7,-1.9,i,0.614,5.4,u,-16.0%
CC(CC(=O)Nc1ccc(F)cc1)S(=O)(=O)c1ccc2c(c1)NC(=O)CO2 (stereo unspecified),5.4,-1.1,i,0.672,0.2,0.6,x
COCCCn1cnnc1SCc1nc2sc(C(C)=O)c(C)c2c(=O)[nH]1,-13.3,8.2,i,0.672,-5.0,-3.3,17.5%
CCOCCCNS(=O)(=O)c1ccc(Br)cc1,1.0,-3.4,x,0.723,x,u,1.1%
COc1ccc2[nH]cc(/C=C(/C#N)S(=O)(=O)c3ccccc3)c2c1,-5.8,3.9,x,0.652,x,-20.9,-4.3%
COC(=O)C1CSc2[nH]c(=O)sc2C1c1ccc(O)c(OC)c1 (stereo unspecified),3.1,-2.5,x,0.705,x,1.7,0.9%
Cc1ccn(C(=O)c2cc3ccccc3oc2=O)n1,-16.5,x,x,0.668,x,0.7,68.8%
COc1ccc2c(c1)C(=O)CCC2c1ccccc1 (stereo unspecified),-1.2,1.7,i,0.686,-9.0,-2.7,x
CC(OC(=O)c1ccc2c(c1)OCO2)C(=O)NC1CCCCC1C (stereo unspecified),-1.1,0.6,x,0.646,-0.3,x,-8.3%
Cc1ccc(C)c2[nH]c(=O)c(CCNC(=O)C(C)(C)C)cc12,-2.0,0.9,i,0.737,4.5,-2.9,2.3%
CCc1ccc(C2=NN(CCC(=O)NC3CCCCCC3)C(=O)CC2)cc1,2.8,1.0,i,0.689,0.0,-2.8,x
CC1CC2=C(NC(=S)NC2c2ccc(F)cc2)/C(=C/c2ccc(F)cc2)C1 (stereo unspecified),0.6,-0.7,x,0.695,x,4.0,12.1%
CCCCn1c(N)c(N(CCOC)C(=O)c2ccc3c(c2)C(=O)N(c2cc(C)ccc2C)C3=O)c(=O)[nH]c1=O,-3.0,5.6,i,0.727,0.2,-0.6,3.1%
Cc1ccc2sc(N(CCCN(C)C)C(=O)c3ccc(S(=O)(=O)N(C)C4CCCCC4)cc3)nc2c1C,5.2,0.7,i,0.654,12.4,-0.9,-0.8%
Cc1ccc2nc(SCC(=O)Nc3ccc4c(c3)OCO4)nc(=O)n2c1,4.1,2.9,i,0.627,-1.5,0.6,-4.1%
COc1cc2c(cc1OC)CC1(CCCCC1)N=C2,i,-0.5,i,0.695,0.9,9.7,-1.3%
COc1ccccc1NC(=O)C1=C(C)Nc2nnnn2C1c1cc(Br)ccc1OC (stereo unspecified),3.0,2.3,x,0.656,x,u,10.3%
Cn1c2c(c(=O)n(C)c1=O)C(c1ccc(Br)cc1)Nc1ccccc1O2 (stereo unspecified),0.9,1.3,x,0.691,x,0.0,4.2%
O=C(NCCc1ccc(Cl)cc1)C1CCC(CNc2c(N3CCCCC3)c(=O)c2=O)CC1 (stereo unspecified),2.5,0.7,i,0.688,6.5,1.1,x
O=S(=O)(c1ccc(Cl)cc1)N1CCN(C(=S)Nc2ccccc2F)CC1,1.3,-4.0,x,0.696,1.0,-0.7,4.9%
Cc1noc(C)c1CSCC(=O)Nc1nc2ccc(Oc3ccccc3)cc2s1,5.2,2.1,x,0.769,x,11.0,-0.9%
CC1(C)C(C=C(Cl)Cl)C1C(=O)Nc1ccc(S(=O)(=O)Nc2ncccn2)cc1 (stereo unspecified),1.3,-0.1,i,0.667,-1.7,-0.5,0.3%
O=C(CCCC(=O)OCC(Cl)=C(Cl)Cl)Nc1ccccc1F,0.6,2.6,i,0.684,-2.1,-5.9,11.7%

Source: PubChem

Not all compounds are listed; the hit share may differ from the screen's.
